Six1-Eya2 blk – blocks human Six1 binding to Eya2. activity change, % (test concentration not listed). AlphaScreen GST-Six1/His-Eya2 binding, biochemical; hits give low values; control for the full effect not named in the record. AID 651725. hit rate 0.56% among 360,000. Q15475+O00167; in the data active = activity change below about -65%; inconclusive = about -30% to -65%; inactive = above about -30%; note: % is set by controls: 0 for no effect and ±100 for the full control effect; compound concentration not given in the record
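AlphaScreen with GST-Six1 and His-Eya2 (5X mix: 250 nM and 500 nM), glutathione donor and nickel acceptor beads; buffer 50 mM Tris pH 8.0, 300 mM NaCl, 1 mM TCEP; 1 h at 37 C in the dark.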
TRPML1 blocker – blocks the human TRPML1 channel; TRPML1-inducible cells, Ca2+ dye fluorescence, FDSS; hits give low values; inhibition of EC80 agonist-evoked calcium signal; activity change, negative = inhibition, % (concentration not given with the values); hit rate 0.02% among 390,000; AID 624415; in the data active means activity change below about -50%; inconclusive means about -30% to -50%; inactive means above about -30%;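 note: stimulus is agonist 54-4 at its EC80 concentration; % is set by controls: 0 for no effect and ±100 for the full control effect; compound concentration not given in the record; the text of the record puts the active cut at -80%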
Target sequence (Q9GZU1 whole entry, looked up): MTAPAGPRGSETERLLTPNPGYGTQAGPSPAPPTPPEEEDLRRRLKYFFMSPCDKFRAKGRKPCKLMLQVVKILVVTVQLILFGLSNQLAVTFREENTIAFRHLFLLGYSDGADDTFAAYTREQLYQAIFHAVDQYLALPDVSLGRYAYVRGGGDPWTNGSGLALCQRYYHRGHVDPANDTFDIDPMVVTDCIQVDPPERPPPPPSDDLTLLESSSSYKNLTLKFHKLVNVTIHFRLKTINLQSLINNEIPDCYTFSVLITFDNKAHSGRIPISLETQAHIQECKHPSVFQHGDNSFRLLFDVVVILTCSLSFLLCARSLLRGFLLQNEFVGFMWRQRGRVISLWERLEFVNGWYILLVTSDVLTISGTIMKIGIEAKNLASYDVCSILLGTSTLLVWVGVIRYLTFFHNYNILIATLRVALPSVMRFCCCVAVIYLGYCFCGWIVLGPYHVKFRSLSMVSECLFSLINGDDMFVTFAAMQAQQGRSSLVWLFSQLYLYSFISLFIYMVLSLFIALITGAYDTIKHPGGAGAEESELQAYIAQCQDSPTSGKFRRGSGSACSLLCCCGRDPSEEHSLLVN
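TRPML1-DL cells, Tet-induced overnight (~16 h, 37 °C) at 1,500 cells/well, were loaded with Ca8 no-wash dye plus quencher for 45-90 min at room temperature. Compounds were pinned during FDSS kinetic reading; agonist 54-4 at EC80 (4 uM final) then added.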
TRPV1 PAM – potentiators of human vanilloid receptor 1 (TRPV1). Q8NER1. potentiation, % at 8.33 µM. AID 540277. hit rate 0.02% among 320,000. TRPV1-expressing cells, Fluo-8 calcium influx, capsaicin EC20 potentiation; host cell line not named in the record; control for the full effect not named in the record; active means potentiation above 80%; inconclusive means 30% to 80%; inactive means below 30%; note: 0% is about no effect
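Fluo-8 calcium influx in TRPV1-expressing cells, kinetic read (ex 480/em 520 nm). Compound added and read 3 min for agonist activity, followed by capsaicin at EC20 final and 2 min further read for enhancement.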
TRPML1 ag – activates the human TRPML1 channel | Q9GZU1 | TRPML1-expressing cells, Ca2+ dye fluorescence, FDSS; host cell line not named in the record; reference of the full effect not given here | activation, % (no concentration beside the values) | hit rate 0.12% among 410,000 | AID 624414; in the data active = activation above about 50%; inconclusive = about 30% to 50%; inactive = below about 30%; note: 0% is about no effect; the text of the record puts the active cut at 80%
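Tet-induced TRPML1-DL cells, 1,500 per well, cultured overnight, were loaded with a no-wash Ca2+ dye for 45–90 min. Calcium fluorescence was recorded on the FDSS for 110 s after compound addition, before the EC80 agonist (4 uM 54-4) was added.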
CtBP-E1A inh – blocks the CtBP interaction with E1A; AlphaScreen GST-E1A/His-CtBP binding, 1536-well; hits give low values; control for the full effect not named in the record; activity change, % (concentration not given with the values); hit rate 0.49% among 340,000; in the data active means activity change below about -65%; inconclusive means about -30% to -65%; inactive means above about -30%; note: % is set by controls: 0 for no effect and ±100 for the full control effect
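GST-E1A and His-tagged CtBP (125 nM each as 5X stock) were preincubated with pin-transferred compound for 2 h at 37 °C in the dark, then glutathione donor and nickel acceptor beads were added for 1 h before AlphaScreen reading.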
D2 PAM – positive allosteric modulators of human D2 dopamine receptor. P14416. DiscoveRx D2 beta-arrestin cells, luminescence, 90 min; 100% = 57 uM dopamine signal. potentiation, % (no concentration beside the values). hit rate 0.23% among 360,000. AID 624464; active = potentiation of 50% or more; inconclusive = 30% to 50%; inactive = 30% or less;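 note: compound concentration not given in the record; tested on top of an EC20 dose of dopamine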
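PathHunter D2 cells, attached overnight at 37 deg C, received compound in DMSO plus dopamine at EC20 (50 nM final) for 90 min at 37 deg C. Beta-arrestin recruitment was read as luminescence after 1 h with detection reagent at ambient temperature.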
An asterisk follows results filed as active; · = no result given; & = joins results of further samples. Compounds as they come; 0.95% or so of the library scored in one or more.

[1] O=C(CCN1C(=O)c2ccccc2C1=O)Nn1cnnc1
[2] O=C(c1cccc(-n2cccc2)c1)N1CCN(S(=O)(=O)c2ccc(F)cc2)CC1
[3] O=C(O)CCC(=O)NC1CCCCC1
[4] CC1Cc2cc(/C(O)=C3/C(=O)C(=O)N(Cc4cccnc4)C3c3cccc(O)c3)ccc2O1 (stereo not given)
[5] COc1ccc(CNC(=O)Cn2c(=O)oc3cc(S(=O)(=O)N4CCCC4)ccc32)cc1

assay / entry	1	2	3	4	5
Six1-Eya2 blk	9	-2	4	-13	-2
TRPML1 blocker	-5	7	-10	-7	11&-7
TRPV1 PAM	2	-6	5	10	17
TRPML1 ag	1.9	0.4	1.8	0.0	-0.4&-0.3
CtBP-E1A inh	6	14	0	·	3
D2 PAM	-7	-5	4	-1	-1

[6] COc1ccc(NC(C)=O)cc1C
[7] CCOC(=O)Cc1nnc(NC(=O)COc2ccc(F)cc2)s1
[8] O=C(Cc1cccs1)N/N=C/C=C/c1ccco1
[9] CCc1ccc2[nH]c3nc(C)cc(C)c3c(=O)c2c1
[10] N#CCCSCc1ccc(OCC(=O)O)cc1

assay / entry	6	7	8	9	10
Six1-Eya2 blk	9	4	-18	1	6
TRPML1 blocker	8	2	-9	-23	-5
TRPV1 PAM	25	-4	1	-15	5
TRPML1 ag	0.0	-0.2	0.5	-0.6	-0.3
CtBP-E1A inh	9	9	-4	11	4
D2 PAM	-13	-6	-13	-10	-11

[11] COC(=O)/C(=C/c1cn(C(C)=O)c2ccccc12)[N+](=O)[O-]
[12] CCCn1c(=S)[nH]c2cc(C(=O)N3CCN(C4CCCCC4)CC3)ccc2c1=O
[13] Cc1cccc(C)c1NC(=O)COC(=O)c1cc(S(=O)(=O)Nc2ccc(Cl)cc2)ccc1O
[14] CCCCCOCC1CC(C/C(C)=N/NC(N)=S)C(=O)O1 (stereo not given)
[15] Cc1cccc(NS(=O)(=O)c2cccc(C(=O)N3CCCC3)c2)c1

assay / entry	11	12	13	14	15
Six1-Eya2 blk	1	4	4	1	14
TRPML1 blocker	-12	6	-15	-13	-2
TRPV1 PAM	15	18	·	-6	-11
TRPML1 ag	0.6	-1.1	-0.9	-0.6	-0.7
CtBP-E1A inh	-11	5	-6	1	-18
D2 PAM	9	-10	-7	-6	-9

Reprinted at random: five entries already listed
[7] CCOC(=O)Cc1nnc(NC(=O)COc2ccc(F)cc2)s1
[1] O=C(CCN1C(=O)c2ccccc2C1=O)Nn1cnnc1
[11] COC(=O)/C(=C/c1cn(C(C)=O)c2ccccc12)[N+](=O)[O-]
[4] CC1Cc2cc(/C(O)=C3/C(=O)C(=O)N(Cc4cccnc4)C3c3cccc(O)c3)ccc2O1 (stereo not given)
[5] COc1ccc(CNC(=O)Cn2c(=O)oc3cc(S(=O)(=O)N4CCCC4)ccc32)cc1

assay / entry	7	1	11	4	5
Six1-Eya2 blk	4	9	1	-13	-2
TRPML1 blocker	2	-5	-12	-7	11&-7
TRPV1 PAM	-4	2	15	10	17
TRPML1 ag	-0.2	1.9	0.6	0.0	-0.4&-0.3
CtBP-E1A inh	9	6	-11	·	3
D2 PAM	-6	-7	9	-1	-1

Additional structures follow:
[16] CCc1ccc(CNC(=O)CCC(=O)n2ncc3cc(C)ccc32)cc1
[17] COc1cc(/C=N/Nc2ccc(Cl)c(C(=O)O)c2)ccc1OC(=O)c1ccc(F)cc1
[18] CC/C(=N\NC(=O)c1ccc(CN(C)S(=O)(=O)c2ccc(C)cc2)cc1)c1ccc(OC(F)F)cc1
[19] O=C(CSc1nc2[nH]ncc2c(=O)[nH]1)Nc1ccccc1F
[20] CC(C)(C)C(=O)NC(=S)Nc1sc2c(c1C#N)CCCCC2

assay / entry	16	17	18	19	20
Six1-Eya2 blk	-1	2	10	-6	-19
TRPML1 blocker	0	4	13	7	75
TRPV1 PAM	1	2	-4	-17	1
TRPML1 ag	-0.5	4.8	-0.2	-0.4	1.2
CtBP-E1A inh	-9	4	20	-2	-3
D2 PAM	-4	-10	-10	-5	-33

Only CtBP-E1A inh, for 7 of the compounds above:
No. | molecule | CtBP-E1A inh
13 | Cc1cccc(C)c1NC(=O)COC(=O)c1cc(S(=O)(=O)Nc2ccc(Cl)cc2)ccc1O | -6
14 | CCCCCOCC1CC(C/C(C)=N/NC(N)=S)C(=O)O1 (stereo not given) | 1
15 | Cc1cccc(NS(=O)(=O)c2cccc(C(=O)N3CCCC3)c2)c1 | -18
16 | CCc1ccc(CNC(=O)CCC(=O)n2ncc3cc(C)ccc32)cc1 | -9
17 | COc1cc(/C=N/Nc2ccc(Cl)c(C(=O)O)c2)ccc1OC(=O)c1ccc(F)cc1 | 4
18 | CC/C(=N\NC(=O)c1ccc(CN(C)S(=O)(=O)c2ccc(C)cc2)cc1)c1ccc(OC(F)F)cc1 | 20
19 | O=C(CSc1nc2[nH]ncc2c(=O)[nH]1)Nc1ccccc1F | -2

Continued.
[21] Cc1ccc(-n2cc(CN3CCN(C(=O)c4ncn[nH]4)CC3)c(-c3ccc(F)cc3)n2)cc1
[22] O=C(CN1C(=O)c2ccccc2C1=O)OC(C(=O)c1ccc(Cl)cc1)c1ccccc1 (stereo not given)
[23] COc1ccccc1CNC(=O)Nc1nc(C(N)CCc2ccccc2)cs1 (stereo not given)
[24] Cc1nnc(SCC(=O)Nc2ccc(Br)cc2)n(N)c1=O
[25] Cc1onc(-c2ccccc2)c1C(=O)N1CCN(S(=O)(=O)c2ccc(OC(F)(F)F)cc2)CC1

assay / entry	21	22	23	24	25
Six1-Eya2 blk	-8	-2	-12	13	3
TRPML1 blocker	13	1	·	6	-1
TRPV1 PAM	8	4	·	2	6
TRPML1 ag	0.9	3.4	-0.3	-0.3	-0.7
CtBP-E1A inh	·	-2	-8	0	7
D2 PAM	-12	-12	-7	-21	-3

Two entries from above, as a markdown table:
| no. | SMILES | Six1-Eya2 blk | TRPML1 blocker | TRPV1 PAM | TRPML1 ag | CtBP-E1A inh | D2 PAM |
| --- | --- | --- | --- | --- | --- | --- | --- |
| 21 | Cc1ccc(-n2cc(CN3CCN(C(=O)c4ncn[nH]4)CC3)c(-c3ccc(F)cc3)n2)cc1 | -8 | 13 | 8 | 0.9 | · | -12 |
| 22 | O=C(CN1C(=O)c2ccccc2C1=O)OC(C(=O)c1ccc(Cl)cc1)c1ccccc1 (stereo not given) | -2 | 1 | 4 | 3.4 | -2 | -12 |

Continued.
[26] CC1CCCCC1NC(=O)CSc1nc2ccccc2c(=O)n1Cc1ccco1 (stereo not given)
[27] CC(=O)N(C)C(c1ccc(N(C)C)cc1)c1nnnn1-c1c(C)cccc1C (stereo not given)
[28] COc1ccc(-n2cnnc2SCC(=O)Nc2ccccc2F)cc1
[29] Cc1nn(CC(=O)N/N=C/c2cccs2)c(C)c1[N+](=O)[O-]
[30] CCC(C(=O)Nc1ccccc1F)n1nc(C)c2c(C)n(-c3ccccc3)nc2c1=O (stereo not given)

assay / entry	26	27	28	29	30
Six1-Eya2 blk	5	-4	9	-5	18
TRPML1 blocker	4	-15	3	24	-3
TRPV1 PAM	-17	-3	20	-14	-15
TRPML1 ag	-0.4	-0.7	3.0	-0.5	0.4
CtBP-E1A inh	7	-10	5	-6	0
D2 PAM	-6	-13	4	-5	0

[31] CC(c1nnc(SCC(=O)N2CCc3ccccc32)n1-c1ccc(Cl)cc1)N(C)C (stereo not given)
[32] CCN(Cc1ccccc1)C(=O)COc1ccccc1
[33] COc1ccc(Cl)cc1NC(=O)CN(C)CC(=O)Nc1cc(OC)c(OC)c(OC)c1
[34] COc1ccc(Cc2nc(-c3ccc(NC(=O)c4cccnc4)cc3)no2)cc1
[35] O=C(COC(=O)c1ccc(S(=O)(=O)C(F)F)cc1)Nc1ccccc1C(=O)NC1CC1
[36] OC(c1nnc(-c2ccccc2)o1)c1cccs1 (stereo not given)
[37] CC(=O)/C(=N\Nc1ccccc1Cl)Sc1nnc(-c2ccccc2)n1-c1ccccc1
[38] CC(=O)N1CCN(c2nc(-c3cccs3)nc3ccccc23)CC1

assay / entry	31	32	33	34	35	36	37	38
Six1-Eya2 blk	-1	-1	-2	7	-1	6	-5	-2
TRPML1 blocker	9	15	1	3	-8	-6	-9	-9
TRPV1 PAM	1	17	-10	-14	-16	-19	-21	-17
TRPML1 ag	-0.6	-0.3	3.4	-0.3	-1.1	1.7	0.5	-0.4
CtBP-E1A inh	7	4	-4	9	·	5	-4	-22
D2 PAM	5	-3	-2	-21	7	-4	-13	4

Screening data deposited in PubChem by National Center for Advancing Translational Sciences (NCATS).
